Source: PubChem BioAssay (several laboratories)
ALR inh – blocks human ALR sulfhydryl oxidase activity; inhibition, % (test concentration not listed); purified ALR, DTT oxidation, H2O2 HRP-luminol luminescence; actives 3.8% (n = 290,000); P55789; AID 485317;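 active = mean and each replicate at 75% or more; inconclusive = only one of the two met; inactive = neither met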;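 note: stock transfer was 7.5 nL into about 7.5 µL; 0% = neutral wells and 100% = wells with inactivated enzyme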
Target sequence (P55789 whole entry, looked up): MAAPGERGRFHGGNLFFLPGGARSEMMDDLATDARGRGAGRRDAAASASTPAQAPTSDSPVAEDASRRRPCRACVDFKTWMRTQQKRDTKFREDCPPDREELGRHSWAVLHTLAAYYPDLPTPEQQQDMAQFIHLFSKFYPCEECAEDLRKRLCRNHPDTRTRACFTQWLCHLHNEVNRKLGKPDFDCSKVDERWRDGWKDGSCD
E coli growth – inhibitors of Escherichia coli growth; actives 0.21% (n = 330,000); OD600 absorbance (test concentration not listed); OD600, 23 h; hits give low values;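 active = OD600 absorbance below the run mean of sample wells minus 3.6 SD, in any replicate, cut at about 0.56 in these data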;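 note: stock transfer was 300 nL into about 60 µL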
Vif TR-FRET – inhibitors of Vif binding to APOBEC3G peptide, primary screen, biochemical, TR-FRET, GST-Vif 1-94, biotin-A3G peptide, dose response retest (AID 1117319); TR-FRET GST-Vif / biotin-A3G peptide binding; higher % means a stronger effect; test concentration not given here; strong numbers were not always called active; inhibition, %; hits with a dose series show IC50 in µM; actives 0.57% (n = 260,000);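 active = above the screen mean plus three standard deviations and confirmed in dose response; inconclusive = results disagree or hit not tested in dose response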;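 note: Vif residues 1-94 fused to GST binding biotinylated APOBEC3G peptide 110-148; 0% = full assay without inhibitor and 100% = GST in place of GST-Vif; retest series ran down from 100 µM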
FGF22 binding – shifts melting point of recombinant human FGF22. Q9HCT0. recombinant FGF22 thermal shift, SYPRO orange fluorescence; percent of sucrose octasulfate shift, DMSO zero. calls only at 9.99 µM. actives 1.5% (n = 340,000);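 active = melting point raised past a set limit in the mean and every replicate; inconclusive = no clear call; three in four hits are not shown here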
Target sequence (Q9HCT0 whole entry, looked up): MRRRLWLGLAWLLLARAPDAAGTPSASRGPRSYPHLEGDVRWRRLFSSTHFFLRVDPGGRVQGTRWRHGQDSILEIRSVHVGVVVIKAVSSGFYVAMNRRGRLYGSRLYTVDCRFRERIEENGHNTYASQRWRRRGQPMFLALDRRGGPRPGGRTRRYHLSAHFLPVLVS
HNF4A DNA FP – change in binding of human HNF4 alpha to DNA | HNF4a-FITC DNA binding, fluorescence polarization, 1 h | actives 0.3% (n = 360,000) | activity change, % at 10 µM | P41235; in the data active = activity change above about 30%, passing the limit was not always enough;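 note: controls were the assay level and a saturating level of protein; the project sought stronger binding though the title names inhibitors; some compounds called inactive have numbers as strong as hits; positive values seem to mean higher polarization but the record does not say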
AF4-AF9 inh – inhibitors of human MLL-AF4/AF9 interaction; AlphaScreen, biotin-AF4 peptide binding to FLAG-AF9; inhibition, % at 10 µM; actives 0.47% (n = 350,000);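 active = every replicate reaching a set inhibition limit, whatever the replicate mean, cut at about 25% in these data; inconclusive = mean inhibition reaches that limit but some replicates miss it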;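 note: 0% = plate neutral control median and 100% = total signal loss; the record names both 10 and 1 µM as test concentration; the first replicate is given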
Target sequence (P42568 whole entry, looked up): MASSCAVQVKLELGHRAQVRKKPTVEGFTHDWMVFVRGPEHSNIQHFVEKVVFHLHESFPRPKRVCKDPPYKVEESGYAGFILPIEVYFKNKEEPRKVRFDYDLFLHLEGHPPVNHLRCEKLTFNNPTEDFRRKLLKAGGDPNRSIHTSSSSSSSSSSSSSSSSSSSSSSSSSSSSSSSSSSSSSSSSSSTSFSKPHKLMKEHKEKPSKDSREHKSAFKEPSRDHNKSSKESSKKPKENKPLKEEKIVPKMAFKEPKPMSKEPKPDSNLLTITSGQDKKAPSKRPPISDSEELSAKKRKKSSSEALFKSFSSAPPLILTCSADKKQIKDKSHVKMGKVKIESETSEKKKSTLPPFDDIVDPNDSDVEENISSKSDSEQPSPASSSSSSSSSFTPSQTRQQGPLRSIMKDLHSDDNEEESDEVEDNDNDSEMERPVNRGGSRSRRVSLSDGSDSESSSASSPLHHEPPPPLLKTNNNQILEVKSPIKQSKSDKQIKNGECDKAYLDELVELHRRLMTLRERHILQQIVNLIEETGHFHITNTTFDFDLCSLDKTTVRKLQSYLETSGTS
Ecoli rRNA inh – selective bacterial rRNA inhibition in E. coli; AID 720706; GFP signal change (wild-type ribosome), % (no concentration beside the values); actives 1.6% (n = 350,000); E. coli WT GFP vs humanized-ribosome RFP mutants, fluorescence, 24 h; hits give low values; DMSO median 0, no signal -100;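 active = significant combined selectivity score with lowered wild-type GFP, culture density cut under 30%, mutant RFP and density less affected; inactive = any of these conditions unmet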; note: one replicate is shown; some compounds called inactive have numbers as strong as hits
Ecoli rRNA inh OD600 – second read-out of Ecoli rRNA inh, no call of its own (marks repeat the call); OD600 change, %; measured here: OD600 growth;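 optical density of the mix in the first replicate; 0 = DMSO median and -100 = no signal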
Ecoli rRNA inh RFP – second read-out of Ecoli rRNA inh, no call of its own (marks repeat the call); RFP signal change, %; measured here: RFP humanized mutant strains;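 first replicate; 0 = DMSO median and -100 = no signal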
Starred values were filed as active, the others as inactive; i = inactive; ? = inconclusive; . = no result given; + = active, no number.

SMILES	ALR inh	E coli growth	Vif TR-FRET	FGF22 binding	HNF4A DNA FP	AF4-AF9 inh	Ecoli rRNA inh	Ecoli rRNA inh OD600	Ecoli rRNA inh RFP
COc1cc(C(=O)OCC(=O)Nc2ccccc2)cc2c1OCCO2	.	.	-4%	i	-5.7	0.0	.	.	.
O=C(CCC(=O)Nc1ccc(Br)cc1)N/N=C/c1ccccc1F	2	.	4%	i	7.7	0.1	7	15	6.4
O=c1[nH]c(=O)n(CCO)c2nnn(Cc3ccccc3)c12	0	0.73	27%	.	1.1	.	.	.	.
Cc1[nH]c2ccc(Br)cc2c(=O)c1CN1CCOCC1	-7	0.72	-4%	.	3.8	.	.	.	.
COc1ccc2occ(C(=O)c3ccccc3)c2c1	-2	0.71	1%	i	-0.4	-0.7	-6	5	-1.9
CC(C)(C)c1ccc(S(=O)(=O)O/N=C2/CCCCC2c2ccc([N+](=O)[O-])cc2[N+](=O)[O-])cc1 (centres undefined)	-2	.	5%	.	-10	.	.	.	.
CCCOC(=O)c1ccc(N2C(=O)c3ccccc3C2=O)cc1	.	0.73	0%	.	1.6	.	.	.	.
CCC1CCCCN1CCCNC(=O)c1ccc(CS(=O)(=O)c2ccccc2C)o1 (centres undefined)	-8	0.71	-7%	i	-1.9	-1.1	2	14	-0.7
CCOC(=O)c1sc2nc(N3CCCC3)c3c(c2c1N)CC(C)(C)OC3	6	0.7	-7%	.	4.3	.	.	.	.
O=C(NCCNC(=O)Nc1ccc(Cl)cc1)Nc1ccc(Cl)cc1	.	0.74	-3%	i	-0.4	-1.5	3	11	0.9
O=C(O)CC(CC(=O)Nc1ccc(Oc2ccccc2)cc1)c1ccccc1 (centres undefined)	.	0.66	-4%	i	6.9	-3.5	-27*	-15*	0.4*
O=C(Nc1ccc(Br)cc1Cl)N1CCOCC1	-1	0.69	-5%	i	3.0	-0.8	7	2	-2.7
COC(=O)CSc1nc(C)c(Oc2ccccc2)c(=O)[nH]1	2	0.69	-6%	.	0.1	.	.	.	.
C/C(=N/N1CCN(c2ccccc2)CC1)c1cccc([N+](=O)[O-])c1	10	.	?	i	3.1	6.4	28	10	-1.4
COc1cccc(-c2cnc3c(c2)C(=O)N([C@@H](C)CO)C[C@H](C)[C@H](CN(C)Cc2ccc(C(=O)O)cc2)O3)c1	.	.	.	i	.	-4.7	3	4	-0.7
CC(NC(=O)C[n+]1cccc(Br)c1)c1ccccc1 (centres undefined)	-2	0.68	-5%	i	-3.0	-0.1	9	2	1.4
CCCCC[C@@H]1CCCCC[C@H](O)C[C@H](O)[C@@H](O)/C=C/C(=O)O1	.	.	.	i	-0.7	-0.4	4	-3	-1.6
CC(C(=O)Nc1ccc(S(=O)(=O)N2CCCC2)cc1)N1CCCC(C(N)=O)C1 (centres undefined)	.	0.63	-1%	i	-1.9	-0.3	-1	1	-3.4
COC(=O)C1CSC2c3ccccc3C(=O)N12 (centres undefined)	-12	0.63	.	i	1.2	-4.1	4	8	-0.6
O=[N+]([O-])c1ccccc1S(=O)(=O)NCc1ccco1	-25	0.68	-15%	.	1.3	0.5	4	-2	-2.9
C[C@@H]1CN([C@H](C)CO)C(=O)c2cc(C#CCN(C)C)cnc2O[C@@H]1CN(C)S(=O)(=O)c1cn(C)cn1	.	.	.	i	.	-7.5	3	8	-3.5
O=C(O)CSCC(=O)Nc1ccc(Br)c(C(F)(F)F)c1	-7	0.72	-6%	i	0.0	-2.4	-3	-6	-1.3
CCCc1cc(=O)oc2cc(OCC(=O)NCCCn3ccnc3)ccc12	1	0.65	.	i	-1.3	-2.2	7	3	1.6
CC1CCN(C(=O)c2ccc(NS(=O)(=O)c3cccc4cccnc34)cc2)CC1	-16	0.69	.	i	-0.2	-0.2	-8	-5	-2.1
CC1CCN(C(=O)C2CCC(CNS(=O)(=O)c3ccc4c(c3)C(C)(C)C(=O)N4C)CC2)CC1 (centres undefined)	.	.	.	i	-0.4	-1.8	1	-3	-0.6
C[C@H](CO)N1C[C@H](C)[C@@H](CN(C)C(=O)C2CCCCC2)OCCCC[C@H](C)Oc2ccc(NC(=O)Cc3ccccc3)cc2C1=O	.	.	.	i	.	-1.0	-5	-8	1.9
Cc1c(O)nc2ccccn2c1=O	-6	0.71	-2%	i	-1.5	1.5	18	12	1.2
O=C(O)C(Cc1c[nH]c2ccccc12)N1Cc2ccccc2C1=O (centres undefined)	.	0.67	12%	i	4.6	-0.5	22	10	-0.5
COc1cccc(C(=O)NCCSCc2c(F)cccc2Cl)c1	.	0.65	-4%	i	4.5	-43	-37	-38	-6.7
CC(C)NC(=O)N(C)C[C@H]1Oc2ccc(NC(=O)Nc3ccccc3)cc2C(=O)N([C@@H](C)CO)C[C@H]1C	.	.	.	i	.	-5.1	3	1	1.1
COc1cccc(S(=O)(=O)N2CCCCN3[C@@H](CO)[C@H](c4ccc(-c5cncnc5)cc4)[C@@H]3C2)c1	.	.	.	i	.	-2.5	0	3	-3.4
COc1ccc(S(=O)(=O)NC(C)C(=O)Nc2ccc3c(c2)OCCO3)cc1OC (centres undefined)	1	0.66	.	i	-0.6	-9.2	6	4	-3.5
N#CC1=C(N)Oc2c(oc(CO)cc2=O)C1c1ccccc1[N+](=O)[O-] (centres undefined)	-20	0.69	16%	i	-1.9	-0.2	2	0	5.5
O=C(Nc1ccccc1N1CCN(C(=O)c2ccccc2)CC1)c1cc(Br)ccc1Cl	-2	0.77	0%	.	0.8	.	.	.	.
CCCCc1c(-c2ccccc2OC)ncn1CCc1cccc(OC)c1	.	.	.	i	2.8	15	-64	-80	-20
CCC(C)c1ccccc1N1CC(C(=O)Nc2ccc(S(=O)(=O)N3CCOCC3)cc2)CC1=O (centres undefined)	-16	0.69	1%	i	5.9	1.7	0	-5	2.0
Cc1ccc(NC(=O)c2ccccc2Br)cc1S(=O)(=O)N(C)C	-3	0.62	4%	i	1.8	-1.9	-12	-11	-6.6
COc1ccc(NC(=O)Cc2ccsc2)c(OC)c1	-4	0.7	.	i	1.3	0.4	6	12	0.5
CCc1ccccc1N(CC(=O)Nc1cccnc1)S(=O)(=O)c1ccccc1	2	0.75	-8%	i	-1.6	0.6	-10	-7	1.1
COC(=O)C1=C(C(=O)OC)C2C=CC1C1C(OC(C)=O)C(OC(C)=O)C21 (centres undefined)	.	.	-10%	i	0.5	0.2	11	15	1.3
O=C(c1ccccc1)c1cccn1CC(=O)N1CCN(C2CCCCC2)CC1	-10	0.63	-5%	.	0.9	.	.	.	.
COc1ccc(N(CC(O)CN2C(=O)NC(C)(C)C2=O)S(=O)(=O)c2ccccc2)cc1 (centres undefined)	-9	0.72	4%	.	3.7	.	.	.	.
CN(CCOc1ccc(-c2ccn(S(=O)(=O)c3cccc4ccccc34)n2)cc1)c1ccccn1	-3	0.75	8%	.	-1.2	.	.	.	.
COc1ccc(/C(C)=N/Nc2nc(C)cc(-c3ccccc3)n2)cc1	-8	.	.	i	1.0	1.2	-17	-12	-8.5
CCn1cc(/C=C(\NC(=O)c2cc(OC)c(OC)c(OC)c2)C(=O)NCCCN2CCOCC2)c2ccccc21	-3	0.7	.	i	-3.3	25*	5	15	-1.2
CC1CN(S(=O)(=O)c2cc(C(=O)N(CCc3ccccc3)Cc3ccccc3)ccc2Cl)CC(C)O1 (centres undefined)	0	0.7	.	i	3.3	-25	9	7	4.7
CC(C)NC(=O)N1Cc2cc(C(=O)NC3CCC3)nc(-c3cccc(-c4cncnc4)c3)c2[C@@H]1CCO	.	.	.	i	.	5.7	-6	-17	-2.0
CC(C)Oc1cccc(C(=O)N/N=C/c2coc3ccccc3c2=O)c1	98*	.	.	i	-4.7	-4.4	14	9	3.7
COc1ccc(N=Cc2c(O)[nH]c3ccccc23)cc1	46	0.7	-5%	.	0.5	.	.	.	.
O=C(NCC(=O)N(c1ccc2c(c1)OCCO2)C(C(=O)NC1CCCC1)c1ccco1)c1ccco1 (centres undefined)	0	0.71	8%	.	-3.3	.	.	.	.
O=C(NCc1nnc(SCC(=O)N2CCN(c3ccccc3)CC2)o1)c1ccco1	5	0.75	15%	.	2.8	.	.	.	.
COc1ccc(C2/C(=C(/O)c3ccccc3)C(=O)C(=O)N2C)cc1 (centres undefined)	-1	.	12%	.	2.9	.	.	.	.
O=C(Nc1ccc(F)cc1)N(CCCN1CCOCC1)Cc1cc2cc3c(cc2[nH]c1=O)OCCO3	.	0.77	?	.	-0.6	.	.	.	.
Brc1ccc(OCc2ccccc2)c(CNCC2CCCO2)c1 (centres undefined)	10	0.65	8%	i	1.7	-1.0	3	-9	5.3
CC(C)CC#Cc1cnc2c(c1)C(=O)N([C@@H](C)CO)C[C@@H](C)[C@@H](CN(C)Cc1ccccc1F)O2	.	.	.	i	.	0.1	-4	-17	3.3
Nc1c(C(=O)NCCc2ccccc2)sc2nc(N3CCOCC3)c3c(c12)CCCC3	.	0.66	.	i	-0.1	2.8	-13	-5	12
CS(=O)(=O)N(Cc1ccccc1Cl)c1ccc(C(=O)NCc2cccnc2)cc1	-4	0.68	-12%	i	3.6	-4.3	0	-1	-0.4
CCCNC(=O)N1CC2(CN(Cc3ccc(OC)cc3)C2)c2c(n(C)c3cc(OC)ccc23)[C@@H]1CO	.	.	.	i	.	34*	4	8	8.4
COc1ccc(OC)c(NC(=O)CNC(c2ccccc2)c2ccccc2)c1	-5	0.68	7%	i	-2.4	-0.4	-5	4	-0.9
Cn1c(SCC(=O)N2CCCC2)nnc1-c1cccs1	-2	0.69	.	i	1.5	-3.9	7	12	7.7

Additional structures follow:
SMILES	ALR inh	E coli growth	Vif TR-FRET	FGF22 binding	HNF4A DNA FP	AF4-AF9 inh	Ecoli rRNA inh	Ecoli rRNA inh OD600	Ecoli rRNA inh RFP
Cc1c(Cl)cccc1N1C(=O)CC(NNC(=O)c2cccs2)C1=O (centres undefined)	-3	0.73	-1%	i	3.1	1.6	7	8	20
Cc1ccc(-c2nn(-c3ccccc3)cc2C(N)=O)o1	-7	0.67	.	i	10	-15	8	2	9.5
COc1ccc(NC(=O)Cc2ccc(-c3ccccc3)cc2)cn1	-31	0.68	-3%	i	0.9	0.0	7	3	-0.5
COc1ccc(OCC(=O)OCC(=O)NC2CCCCC2C)cc1 (centres undefined)	1	0.67	.	i	3.0	-2.1	13	3	3.3
Cc1c(OCC(=O)N2CCC(C(=O)O)CC2)ccc2c1oc(=O)c1ccccc12	-29	0.75	.	i	1.5	-2.7	.	.	.
O=C(/C=C/c1ccc(O)cc1)c1ccccc1	99*	0.65	.	+	0.0	-3.1	3	-9	4.3
COC(=O)c1sc(NC(=O)c2ccco2)c(C#N)c1C	5	0.66	-5%	i	7.4	-1.4	-5	2	-0.6
COc1cc(-c2cc(C(=O)Nc3cc(S(=O)(=O)N4CCOCC4)ccc3C)c3ccccc3n2)cc(OC)c1OC	.	0.73	-6%	i	-1.1	-8.3	-1	-1	-1.0

Full records, looked up by structure. Order of values: ALR inh | E coli growth | Vif TR-FRET | FGF22 binding | HNF4A DNA FP | AF4-AF9 inh | Ecoli rRNA inh | Ecoli rRNA inh OD600 | Ecoli rRNA inh RFP
COc1ccc(OCC(=O)OCC(=O)NC2CCCCC2C)cc1 (centres undefined) is listed with 1 | 0.67 | . | i | 3.0 | -2.1 | 13 | 3 | 3.3
Cc1c(Cl)cccc1N1C(=O)CC(NNC(=O)c2cccs2)C1=O (centres undefined) is listed with -3 | 0.73 | -1% | i | 3.1 | 1.6 | 7 | 8 | 20
O=C(/C=C/c1ccc(O)cc1)c1ccccc1 is listed with 99* | 0.65 | . | + | 0.0 | -3.1 | 3 | -9 | 4.3

The list is partial. The share of hits here may be higher or lower than overall.
